Ecoli rRNA inh: selective bacterial rRNA inhibition in E. coli | GFP signal change (wild-type ribosome), % (no concentration beside the values) | E. coli WT GFP vs humanized-ribosome RFP mutants, fluorescence, 24 h; active compounds read low; DMSO median 0, no signal -100 | actives 1.6% (n = 350,000);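 active means significant combined selectivity score with lowered wild-type GFP, culture density cut under 30%, mutant RFP and density less affected; inactive means any of these conditions unmet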; further: one replicate is shown; some compounds called inactive have numbers as strong as hits
MLL AF4-AF9 inh: inhibitors of human MLL-AF4/AF9 interaction | inhibition, % at 10 µM | AlphaScreen, biotin-AF4 peptide binding to FLAG-AF9 | P42568 | actives 0.47% (n = 350,000);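 active means every replicate reaching a set inhibition limit, whatever the replicate mean, cut at about 25% in these data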;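 further: 0% = plate neutral control median and 100% = total signal loss; the record names both 10 and 1 µM as test concentration; the first replicate is given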
Target sequence (P42568 whole entry, looked up): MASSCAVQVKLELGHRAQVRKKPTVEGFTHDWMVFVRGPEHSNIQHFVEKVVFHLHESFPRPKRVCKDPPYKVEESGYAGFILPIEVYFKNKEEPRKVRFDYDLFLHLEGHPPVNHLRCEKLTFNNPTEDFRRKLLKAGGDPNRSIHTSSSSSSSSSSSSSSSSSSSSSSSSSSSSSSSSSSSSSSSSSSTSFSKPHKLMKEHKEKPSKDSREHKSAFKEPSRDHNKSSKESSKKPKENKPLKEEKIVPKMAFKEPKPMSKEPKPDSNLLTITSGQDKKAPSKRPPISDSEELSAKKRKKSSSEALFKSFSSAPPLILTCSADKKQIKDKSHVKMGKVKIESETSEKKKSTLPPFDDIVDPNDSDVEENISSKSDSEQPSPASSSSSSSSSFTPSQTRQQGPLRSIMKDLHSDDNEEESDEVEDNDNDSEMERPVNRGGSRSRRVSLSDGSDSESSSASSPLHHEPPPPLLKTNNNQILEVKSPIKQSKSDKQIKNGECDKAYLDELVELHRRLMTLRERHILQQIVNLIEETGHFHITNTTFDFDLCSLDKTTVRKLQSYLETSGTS
Ecoli rRNA inh OD600: second read-out of Ecoli rRNA inh, no call of its own (marks repeat the call); OD600 change, %; measured here: OD600 growth;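 optical density of the mix in the first replicate; 0 = DMSO median and -100 = no signal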
Ecoli rRNA inh RFP: further read-out of Ecoli rRNA inh, marked with its call; RFP signal change, %; measured here: RFP humanized mutant strains;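 first replicate; 0 = DMSO median and -100 = no signal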
Numbers without * were called inactive; & = joins results of further samples. Only part of the results is shown; rates above refer to the full screens.

SMILES	Ecoli rRNA inh	Ecoli rRNA inh OD600	Ecoli rRNA inh RFP	MLL AF4-AF9 inh
COc1ccc(S(=O)(=O)N2CCCCN3[C@H](CO)[C@@H](c4ccc(-c5cccnc5)cc4)[C@@H]3C2)cc1	-5	-26	1.7	-5.6
CCC(=O)N1[C@@H]2c3ccc(C4=CCCCC4)c(=O)n3C[C@@H]2[C@@H](CO)[C@@H]1C(=O)NCc1ccc(F)cc1	-1	4	3.4	-0.3
CC1(C)CC(=O)C=C(c2cccc(OC(=O)c3ccc(-c4ccccc4)cc3)c2)C1=O	7	14	-3.3	6.0
O=C(Nc1ccc(Oc2ccccc2)cc1)c1ccc2sc([C@H]3C[C@H](O)[C@@H](CO)O3)nc2c1	-8	-13	-1.3	-3.9
COc1ccc(-c2ccc(C3[C@H]4CNC[C@@H]3N4C(=O)Nc3ccc4c(c3)OCO4)cc2)cc1 (some centres not stated)	-6&-56	-10&-78	-3.4&-15	20&9.3
C[C@@H]1CN([C@H](C)CO)C(=O)c2cc(N(C)C)ccc2O[C@@H]1CN(C)Cc1ccc(-c2ccccc2)cc1	-6	-33	16	47*
COc1ccc(S(=O)(=O)Nc2ccc3c(c2)C(=O)N([C@H](C)CO)C[C@H](C)[C@H](CN(C)Cc2ccc(Cl)c(Cl)c2)OCCCC[C@H](C)O3)cc1	-2	-10	4.5	2.2
C[C@H](CO)N1C[C@H](C)[C@H](CN(C)Cc2ccc(Oc3ccccc3)cc2)Oc2ccc(NC(=O)c3ccncc3)cc2C1=O	-3	-5	9.4	5.5
O=C(Cc1ccc(S(=O)(=O)N2CCOCC2)s1)N1CCN(S(=O)(=O)c2cccc(F)c2)CC1	7	10	-3.6	-1.7
C/C=C/c1ccc([C@H]2[C@@H](CO)N3C(=O)CN(C(=O)Nc4ccc(OC)cc4)C[C@H]23)cc1	4	-3	-2.1	-0.6
O=C(CC1CC1)N1[C@H](CO)[C@@H]2c3ccccc3N(S(=O)(=O)c3ccccc3F)C[C@@H]21	-7	-3	2.0	-0.4
C[C@H](CO)N1C[C@H](C)[C@@H](CN(C)C(=O)Nc2ccc(F)cc2)OCCCC[C@H](C)Oc2ccc(NS(C)(=O)=O)cc2C1=O	-3	-6	2.2	0.7
O=C(C[C@@H]1C[C@H]2c3cc(NC(=O)C4CCOCC4)ccc3O[C@H]2[C@H](CO)O1)NCc1ccccn1	2	-3	-0.6	1.3
CCS(=O)(=O)Nc1ccc2c(c1)C(=O)N(C)[C@@H]1CC[C@@H](CC(=O)OC)O[C@@H]1CO2	4	5	-0.3	-2.5
COC(=O)C[C@H]1C[C@@H]2c3cc(NC(=O)NC4CCCCC4)ccc3O[C@@H]2[C@@H](CO)O1	3	-3	-2.0	-2.1
COc1ccc(CCNC(=O)C(F)(F)F)cc1S(N)(=O)=O	5	15	-1.5	-5.2
O=[N+]([O-])c1ccc(Cl)c(CN2CCN(c3ncc(Cc4ccccc4)cn3)CC2)c1	10	7	2.5	4.2
O=C(C[C@@H]1C=C[C@H](NC(=O)c2ccncc2)[C@H](CO)O1)NCc1ccncn1	1	-2	-0.8	-2.3
COc1cccc(-c2cc(NC=O)c3ncc(-c4cc(OC)c(OC)c(OC)c4)n3c2)c1	5	7	1.9	-1.6
CC(C)NC(=O)N(C)C[C@@H]1OCCCC[C@@H](C)Oc2ccc(NC(=O)NC3CCCCC3)cc2C(=O)N([C@@H](C)CO)C[C@@H]1C	3	-6	-3.9	-1.0
O=C(C[C@H]1C[C@@H]2c3cc(NS(=O)(=O)c4ccc(F)cc4)ccc3O[C@@H]2[C@@H](CO)O1)NCc1ccc(Oc2ccccc2)cc1	-1	-21	1.3	0.3
COc1ccc2c3c(n(C)c2c1)[C@@H](CO)N(C(=O)Cc1ccccc1)CC31CN(C)C1	7	3	0.8	7.2
CCCNC(=O)N1[C@@H]2CN(C(=O)Nc3ccccc3)c3ccccc3[C@@H]2[C@@H]1CO	-14	-6	11	1.6
COc1cc(CN2CC3(CCN(C(=O)Nc4c(C)noc4C)CC3)c3c(n(C)c4cc(OC)ccc34)[C@H]2CO)cc(OC)c1	4	5	-0.8	12
O=C(C[C@H]1CC[C@H](NC(=O)c2ccc3c(c2)OCO3)[C@H](CO)O1)NCc1ccc(Cl)cc1	-7	-2	-0.5	0.0

Printed as active in MLL AF4-AF9 inh, of those listed so far:
SMILES	Ecoli rRNA inh	Ecoli rRNA inh OD600	Ecoli rRNA inh RFP	MLL AF4-AF9 inh
C[C@@H]1CN([C@H](C)CO)C(=O)c2cc(N(C)C)ccc2O[C@@H]1CN(C)Cc1ccc(-c2ccccc2)cc1	-6	-33	16	47*

More results follow.
SMILES	Ecoli rRNA inh	Ecoli rRNA inh OD600	Ecoli rRNA inh RFP	MLL AF4-AF9 inh
C[C@H]1CN([C@@H](C)CO)S(=O)(=O)c2ccc(-c3cccnc3)cc2O[C@@H]1CN(C)C	3	12	-1.6	-4.5
N#C[C@H]1[C@@H](c2ccc(C3=CCCCC3)cc2)[C@@H](CO)N1C(=O)C1CCOCC1	2	-2	-0.1	1.1
COCC(=O)N[C@@H]1C=C[C@@H](CC(=O)NCc2ccc(Cl)cc2)O[C@@H]1CO	2	11	-2.4	-2.1
CO[C@H]1CN(C)C(=O)c2ccc(NC(=O)C3CCOCC3)cc2OC[C@H](C)NC[C@@H]1C	0	3	-0.8	-5.4
O=C(Nc1cc(F)ccc1F)N1CCCCN2[C@@H](CO)[C@@H](c3ccc(-c4cncnc4)cc3)[C@@H]2C1	1	9	1.5	-3.6
CCCCNC(=O)c1ccc2nc(CC)c(N(CCC(C)C)CCN(C)C)n2c1	3	0	2.1	0.2
CCCCn1nnnc1C(c1cc2ccccc2o1)N(C)Cc1ccc(Cl)cc1 (configuration not stated)	29	16	0.2	-2.3
CC(=O)c1cccc(-c2ccnc3c2CC(C(=O)NCc2cccs2)O3)c1 (configuration not stated)	-11	-13	2.0	2.8
N#Cc1cccc(-c2ccc(C3[C@H]4CNC[C@@H]3N4Cc3cccc(-c4ccncc4)c3)cc2)c1 (some centres not stated)	-7	-9	-0.3	-3.1
CC(=O)Nc1cccc(-c2ccnc3c2CC(C(=O)Nc2ccc4c(c2)OCO4)O3)c1 (configuration not stated)	-22*	-8.3*	-0.4*	0.7
CO[C@H]1CN(C)C(=O)c2ccc(NC(=O)Cc3ccccc3)cc2OC[C@@H](C)N(C(=O)c2ccccc2F)C[C@H]1C	2	-2	4.5	-0.2
C[C@@H]1CN([C@@H](C)CO)C(=O)Cc2cc(NC(=O)CCN3CCOCC3)ccc2O[C@H]1CN(C)S(=O)(=O)c1ccc(F)cc1	2	3	-5.3	2.4
CC(=O)N(C)C[C@@H]1Oc2ncc(-c3cccc(C#N)c3)cc2C(=O)N([C@@H](C)CO)C[C@H]1C	-1	6	-1.7	-3.0
C[C@@H]1CN([C@H](C)CO)C(=O)c2cc(NS(=O)(=O)c3cccs3)ccc2O[C@@H]1CN(C)Cc1ccncc1	1	-4	-1.4	-2.2
COc1ccc(S(=O)(=O)N(C)C[C@H]2Oc3c(NC(=O)C4CC4)cccc3C(=O)N([C@H](C)CO)C[C@H]2C)cc1	6	10	-1.3	-1.5
C[C@@H]1CN([C@@H](C)CO)C(=O)Cc2cc(NC(=O)Nc3cccc4ccccc34)ccc2O[C@@H]1CN(C)CC1CC1	-1	0	4.2	4.9
CCS(=O)(=O)N[C@H]1CC[C@H](CC(=O)NCc2ccc(Cl)cc2)O[C@H]1CO	6	16	1.8	-2.1
COC(=O)C1=C(C)N(Cc2ccccc2C(F)(F)F)C(=NCc2cccc(C(F)(F)F)c2)NC1CCc1ccccc1 (configuration not stated)	-34	-47	21	-0.2
CO[C@@H]1CN(C)C(=O)c2ccc(NC(C)=O)cc2OC[C@@H](C)N(S(C)(=O)=O)C[C@H]1C	2	8	-1.2	-2.9
C[C@H]1CN([C@@H](C)CO)C(=O)c2cc(C#CC3(O)CCCC3)cnc2O[C@@H]1CN(C)S(=O)(=O)c1ccccc1	-4	10	0.8	-2.8
COc1ccc(S(=O)(=O)Nc2cccc3c2O[C@H](CN(C)C(=O)Nc2ccc(F)cc2)[C@@H](C)CN([C@@H](C)CO)C3=O)cc1	0	4	-3.9	-1.1
Cc1ccc(CN2CC(=O)N3[C@H](CO)[C@@H](c4ccc(Br)cc4)[C@@H]3C2)cc1	5	5	1.9	1.8
Cn1nc(C(C)(C)C)cc1C(=O)N1CCCCC1c1cc(C(=O)Nc2cccc(C#N)c2)no1 (configuration not stated)	1	-9	-2.5	-1.6
C[C@H](CO)N1C[C@H](C)[C@@H](CN(C)Cc2ccncc2)Oc2cc(-c3ccccc3F)ccc2S1(=O)=O	-33	-44	-1.8	5.7
CO[C@@H]1CN(C)C(=O)c2ccc(NC(C)=O)cc2OC[C@@H](C)N(Cc2cccc(F)c2)C[C@H]1C	-12	-19	-0.8	-9.9

The last 3 compounds of the section before come first, to join the parts.
SMILES	Ecoli rRNA inh	Ecoli rRNA inh OD600	Ecoli rRNA inh RFP	MLL AF4-AF9 inh
Cn1nc(C(C)(C)C)cc1C(=O)N1CCCCC1c1cc(C(=O)Nc2cccc(C#N)c2)no1 (configuration not stated)	1	-9	-2.5	-1.6
C[C@H](CO)N1C[C@H](C)[C@@H](CN(C)Cc2ccncc2)Oc2cc(-c3ccccc3F)ccc2S1(=O)=O	-33	-44	-1.8	5.7
CO[C@@H]1CN(C)C(=O)c2ccc(NC(C)=O)cc2OC[C@@H](C)N(Cc2cccc(F)c2)C[C@H]1C	-12	-19	-0.8	-9.9
COc1ccccc1Cc1c(-c2ccc(OC)c(OC)c2)nc2ccc(Cl)cn12	-5	1	-1.1	9.7
CSCCNC(=O)C1(C)CCN1C(=O)C/C=C/c1ccccc1 (configuration not stated)	8	8	-0.5	-7.1
C[C@@H]1CN([C@H](C)CO)C(=O)c2cc(C3=CCCCC3)cnc2O[C@H]1CN(C)C(=O)c1ccccn1	-1	-9	-4.0	0.1
COc1ccc(NC(=O)N[C@H]2C=C[C@H](CC(=O)NC3CCC3)O[C@@H]2CO)cc1	-3	-7	-0.8	-0.1
CC(C)NC(=O)Nc1ccc2c(c1)C(=O)N([C@@H](C)CO)C[C@@H](C)[C@@H](CN(C)S(C)(=O)=O)O2	2	3	-0.2	-1.5
Cc1noc(C)c1NC(=O)N(C)C[C@@H]1Oc2c(NC(=O)c3ccncc3)cccc2C(=O)N([C@@H](C)CO)C[C@H]1C	5	13	-0.8	-1.3
C[C@H]1CN([C@@H](C)CO)C(=O)Cc2cc(NC(=O)C3CC3)ccc2O[C@@H]1CN(C)C(=O)Nc1ccc2c(c1)OCO2	2	8	-0.3	-2.4
C[C@@H]1CN([C@H](C)CO)C(=O)c2cc(-c3cccnc3)cnc2O[C@@H]1CN(C)C(=O)C1CCC1	6	5	-2.0	-3.5
O=C(C1CC1)N1CC(=O)N2[C@@H](CO)[C@H](c3ccc(C#CCc4ccccc4)cc3)[C@@H]2C1	1	2	4.5	0.2
O=C(C[C@H]1C=C[C@H](NC(=O)C2CC2)[C@H](CO)O1)NCc1ccccc1Cl	2	5	-0.6	0.9
C[C@@H]1CN([C@@H](C)CO)C(=O)c2cc(N(C)C)ccc2O[C@@H]1CN(C)S(=O)(=O)c1ccccc1	0	0	-1.3	1.7
C[C@@H](NC(=O)C[C@@H]1C=C[C@H](NC(=O)CN2CCOCC2)[C@H](CO)O1)c1ccccc1	2	8	-0.1	0.4
N#C[C@@H]1[C@H](c2ccc(C#CC3CCCC3)cc2)[C@@H](CO)N1C(=O)c1cccc(F)c1	-31	-53	19	0.8
COc1cc(OC)cc(C2=Cc3ccc(OC)cc3C(CC(C)=O)N2c2ccc(C#CC3(N)CCCCC3)cc2)c1 (configuration not stated)	6	23	5.7	10
C[C@H](CO)N1C[C@H](C)[C@@H](CN(C)Cc2ccc(Oc3ccccc3)cc2)Oc2ccc(NS(=O)(=O)c3ccc(F)cc3)cc2CC1=O	2	2	4.5	1.8
COc1ccc(S(=O)(=O)N(C)C[C@@H]2OCCCC[C@@H](C)Oc3ccc(NS(=O)(=O)c4ccccc4)cc3C(=O)N([C@@H](C)CO)C[C@@H]2C)cc1	-1	-7	-2.7	0.5
O=S1(=O)CC(N2CCCC2)CN1Cc1cn(Cc2ccc(F)cc2)nn1 (configuration not stated)	5	11	2.3	-1.9
COc1cc(F)ccc1-c1csc(C(O)c2ccccc2)n1 (configuration not stated)	-23	-51	-5.8	-7.3
C[C@@H]1CN([C@@H](C)CO)C(=O)c2cc(N(C)C)ccc2O[C@@H]1CN(C)Cc1ccc(C(F)(F)F)cc1	-2	-10	-1.4	16
O=C(CCCCCn1c(=O)[nH]c2ccccc2c1=O)NC1CCCC1	19	16	3.5	-5.9
C[C@H](CO)N1C[C@H](C)[C@H](CN(C)C(=O)NC2CCCCC2)Oc2ccc(NC(=O)CCN3CCOCC3)cc2CC1=O	1	6	-1.1	-2.3
O=C(OCC(=O)N1CCOCC1)c1cc(S(=O)(=O)N2CCOCC2)c(Cl)cc1Cl	6	12	-1.9	2.8

In the list so far, these have a CF3 group:
SMILES	Ecoli rRNA inh	Ecoli rRNA inh OD600	Ecoli rRNA inh RFP	MLL AF4-AF9 inh
COc1ccc(CCNC(=O)C(F)(F)F)cc1S(N)(=O)=O	5	15	-1.5	-5.2
COC(=O)C1=C(C)N(Cc2ccccc2C(F)(F)F)C(=NCc2cccc(C(F)(F)F)c2)NC1CCc1ccccc1 (configuration not stated)	-34	-47	21	-0.2
C[C@@H]1CN([C@@H](C)CO)C(=O)c2cc(N(C)C)ccc2O[C@@H]1CN(C)Cc1ccc(C(F)(F)F)cc1	-2	-10	-1.4	16

Compound activity from PubChem BioAssay.
